MLL AF4-AF9 inh: blocks AF4 peptide binding to human AF9. P42568. AlphaScreen, biotin-AF4 peptide binding to FLAG-AF9. inhibition, % at 10 µM. 350,000 tested, 0.47% active;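 active = every replicate reaching a set inhibition limit, whatever the replicate mean, cut at about 25% in these data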;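 also: 0% = plate neutral control median and 100% = total signal loss; the record names both 10 and 1 µM as test concentration; the first replicate is given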
Target sequence (P42568 whole entry, looked up): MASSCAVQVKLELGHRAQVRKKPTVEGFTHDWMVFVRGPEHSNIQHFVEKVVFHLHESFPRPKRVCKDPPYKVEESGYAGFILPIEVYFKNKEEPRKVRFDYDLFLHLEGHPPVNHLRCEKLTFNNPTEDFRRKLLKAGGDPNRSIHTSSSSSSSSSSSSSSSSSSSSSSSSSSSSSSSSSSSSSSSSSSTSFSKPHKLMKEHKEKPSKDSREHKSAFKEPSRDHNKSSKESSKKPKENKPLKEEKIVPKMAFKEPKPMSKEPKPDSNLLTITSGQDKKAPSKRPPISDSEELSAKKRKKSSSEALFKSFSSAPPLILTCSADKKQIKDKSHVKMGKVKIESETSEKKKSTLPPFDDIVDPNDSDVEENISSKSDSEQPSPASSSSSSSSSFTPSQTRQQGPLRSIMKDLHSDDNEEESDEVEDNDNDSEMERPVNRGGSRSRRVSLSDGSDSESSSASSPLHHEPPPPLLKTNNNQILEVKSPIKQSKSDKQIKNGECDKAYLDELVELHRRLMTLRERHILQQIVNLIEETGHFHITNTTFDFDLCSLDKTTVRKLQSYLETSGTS
Numbers without * were called inactive; & = joins results of further samples.

A first look, 2 compounds:
SMILES	MLL AF4-AF9 inh
COc1cccc(C(=O)N2C[C@@H]3[C@H](c4ccccc42)[C@@H](CO)N3C(=O)c2ccccc2)c1	-0.3
C[C@@H]1CN([C@@H](C)CO)C(=O)c2cc(NS(=O)(=O)c3cn(C)cn3)ccc2O[C@@H]1CN(C)C	-2.2

Main list, previewed entries included:
SMILES	MLL AF4-AF9 inh
COc1cccc(C(=O)N2C[C@@H]3[C@H](c4ccccc42)[C@@H](CO)N3C(=O)c2ccccc2)c1	-0.3
C[C@@H]1CN([C@@H](C)CO)C(=O)c2cc(NS(=O)(=O)c3cn(C)cn3)ccc2O[C@@H]1CN(C)C	-2.2
N#C[C@@H]1[C@H](c2ccc(-c3ccccc3F)cc2)[C@@H](CO)N1C(=O)c1ccccn1	0.7
O=C(C1CCC1)N1CCCCN2[C@H](CO)[C@H](c3ccc(-c4cccc(F)c4)cc3)[C@@H]2C1	-3.3
COC(=O)C[C@@H]1C=C[C@H](NC(=O)Nc2ccc(F)cc2)[C@@H](CO)O1	-0.9
COCC(=O)N(C)C[C@H]1Oc2cc(C#CCC(C)C)ccc2S(=O)(=O)N([C@H](C)CO)C[C@H]1C	-0.7
N#C[C@H]1[C@@H](c2ccc(-c3ccccc3F)cc2)[C@H](CO)N1C(=O)Cc1ccccc1	1.3
Cc1ccc(Cc2c(-c3ccc(Cl)cc3)nc3cc(C)c(Br)c(C)n23)cc1	0.6
CC(=O)Nc1cc(-c2ccc(N(C)C)cc2)cn2c(-c3ccc(F)cc3)cnc12	-0.8
O=C(C[C@@H]1C=C[C@H](NC(=O)Nc2ccccc2F)[C@H](CO)O1)NCc1ccccc1	-4.8
Cn1cnc(S(=O)(=O)N2C[C@@H](O)COC[C@@H]3O[C@@H](CC(=O)NCc4cc(F)cc(F)c4)CC[C@H]32)c1	-3.6
O=S(=O)(c1ccccc1)N1CCCCN2[C@H](CO)[C@@H](c3ccc(C#CC4CCCC4)cc3)[C@H]2C1	0.8
C[C@H](CO)N1C[C@H](C)[C@@H](CN(C)C(=O)NC2CCCCC2)Oc2ccc(NC(=O)Cn3cnnn3)cc2CC1=O	-2.4
COC(=O)C[C@@H]1CC[C@@H]2[C@@H](COc3ccc(NS(=O)(=O)c4cccc(F)c4)cc3C(=O)N2C)O1	-1.9
COc1ccc2c3c([nH]c2c1)[C@H](CO)N(C(=O)C1CC1)CC31CCN(C(=O)NC(C)C)CC1	2.8
Cc1noc(C)c1NC(=O)N(C)C[C@@H]1OCCCC[C@H](C)Oc2ccc(NC(=O)NC3CCCCC3)cc2C(=O)N([C@H](C)CO)C[C@@H]1C	-15.3
C[C@@H]1CN([C@@H](C)CO)C(=O)Cc2cc(NC(=O)CCC(F)(F)F)ccc2O[C@@H]1CN(C)C	-1.9
C[C@H]1CN([C@@H](C)CO)C(=O)Cc2cc(NS(=O)(=O)c3cn(C)cn3)ccc2O[C@H]1CN(C)C(=O)Nc1ccc(C(F)(F)F)cc1	3.0
CN1C[C@@H]2[C@H](c3ccccc31)[C@@H](CO)N2C(=O)Nc1ccccc1Cl	-2.3
Cn1cnc(S(=O)(=O)N2[C@@H]3CNC[C@H]2C3c2ccc(-c3ccccc3)cc2)c1 (stereo not given in full)	1.4&-1.5
O=C(C[C@@H]1CC[C@@H](NS(=O)(=O)c2ccc(F)cc2)[C@H](CO)O1)NCc1ccc(Cl)c(Cl)c1	0.5
CO[C@@H]1CN(C)C(=O)c2cc(NS(=O)(=O)c3cccc(C)c3)ccc2OC[C@@H](C)NC[C@H]1C	-5.9
CCCCNC(=O)C1(C)CCCCN1C(=O)c1ccno1 (stereo not given)	2.0
CN1C(=O)c2cc(NC(=O)C3CCOCC3)ccc2OC[C@@H]2O[C@@H](CC(=O)NCC3CC3)CC[C@H]21	-1.3
CC(C)N(C(=O)[C@H]1C[C@H](CC(=O)NCCCn2ccnc2)C(=O)N2CCc3c([nH]c4cc(-c5ccco5)ccc34)[C@]12C)C(C)C	6.9
COc1ccc(CN2CC3(C2)CN(Cc2ccc4c(c2)OCO4)[C@H](CO)c2[nH]c4cc(OC)ccc4c23)cc1	35.7*
CO[C@H]1CN(C)C(=O)c2ccc(NS(C)(=O)=O)cc2OC[C@H](C)N(CC2CCCCC2)C[C@H]1C	6.5
C[C@H](CO)N1C[C@H](C)[C@@H](CN(C)C(=O)Nc2cccc3ccccc23)Oc2ccc(NC(=O)Cc3ccccc3)cc2CC1=O	0.1
CO[C@@H]1CN(C)C(=O)c2ccc(NC(=O)c3ccccc3)cc2OC[C@H](C)NC[C@@H]1C	-1.8
CCC(=O)N1C[C@@H](C)[C@H](OC)CN(C)C(=O)c2ccc(NC(=O)NC(C)C)cc2OC[C@@H]1C	-2.0
Cc1cc(C(=O)Nc2cccc3c2O[C@H](CN(C)S(=O)(=O)c2cccs2)[C@@H](C)CN([C@H](C)CO)C3=O)n(C)n1	-12.4
Cc1noc(C)c1S(=O)(=O)N(C)C[C@@H]1Oc2ccc(NS(C)(=O)=O)cc2CC(=O)N([C@H](C)CO)C[C@@H]1C	-1.8
CO[C@H]1CN(C)C(=O)c2ccc(NS(C)(=O)=O)cc2OC[C@H](C)N(Cc2ccccc2)C[C@@H]1C	-0.1
COc1ccc(NC(=O)Nc2ccc3c(c2)CC(=O)N([C@H](C)CO)C[C@@H](C)[C@@H](CN(C)S(=O)(=O)c2ccccc2)O3)cc1	0.1
COC(=O)C[C@H]1C[C@H]2c3cc(N(C)C)ccc3O[C@H]2[C@@H](CO)O1	-0.5
O=C(C[C@@H]1C=C[C@H](NS(=O)(=O)c2ccccc2)[C@@H](CO)O1)NCc1ccncn1	-1.9
CCC(=O)N1CC2(C1)[C@@H](c1ccc(-c3ccccc3)cc1)[C@@H](CO)N2S(C)(=O)=O	0.2
C[C@H]1CN([C@@H](C)CO)C(=O)c2ccccc2-c2ccccc2CO[C@H]1CN(C)Cc1cccc(C(=O)O)c1	-5.6
C[C@@H]1CN([C@H](C)CO)C(=O)c2cc(C#Cc3cccc(F)c3)cnc2O[C@@H]1CN(C)CC1CCCC1	6.5
O=C(N[C@@H]1CC[C@H](CCn2cc(C3(O)CCCC3)nn2)O[C@H]1CO)C1CCCCC1	0.1
CC(C)CNc1ncnc2c1ncn2[C@H]1CN(Cc2cccs2)C[C@@H](CO)O1	-4.3
O=C(C[C@H]1C[C@H]2c3cc(NC(=O)Nc4ccc(F)cc4)ccc3O[C@H]2[C@@H](CO)O1)NCC(F)(F)F	-4.9
CO[C@H]1CN(C)C(=O)c2ccc(NC(=O)Nc3ccccc3)cc2OC[C@H](C)N(C(=O)CN(C)C)C[C@H]1C	-2.3
Cc1noc(C)c1NC(=O)Nc1ccc2c(c1)CC(=O)N([C@H](C)CO)C[C@H](C)[C@H](CN(C)C(=O)Nc1ccc(C(F)(F)F)cc1)O2	0.7
CCNC(=O)C[C@@H]1CC[C@@H]2[C@H](COc3ccc(NS(=O)(=O)c4ccccc4C)cc3C(=O)N2C)O1	-4.3
CN(C)c1ccc2c(c1)[C@H]1C[C@H](CC(=O)N3CCCCC3)O[C@H](CO)[C@H]1O2	-1.1
Cc1noc(C)c1NC(=O)N(C)C[C@H]1Oc2ccc(NC(=O)NC3CCCCC3)cc2CC(=O)N([C@H](C)CO)C[C@@H]1C	-1.6
COc1ccc(S(=O)(=O)N(C)C[C@@H]2Oc3ccc(NC(=O)Nc4c(C)noc4C)cc3CC(=O)N([C@H](C)CO)C[C@@H]2C)cc1	-3.3
C[C@H](CO)N1C[C@H](C)[C@H](CN(C)C(=O)Nc2cccc3ccccc23)OCCCC[C@H](C)Oc2ccc(NC(=O)Nc3ccc(C(F)(F)F)cc3)cc2C1=O	-3.5
CCOC(=O)N(C)C[C@H]1OCc2ccccc2-c2c(n(C)c3ccccc23)C(=O)N([C@H](C)CO)C[C@H]1C	-2.9

A draw from above in order of molecular weight, low to high:
SMILES	MLL AF4-AF9 inh
CN1C[C@@H]2[C@H](c3ccccc31)[C@@H](CO)N2C(=O)Nc1ccccc1Cl	-2.3
N#C[C@H]1[C@@H](c2ccc(-c3ccccc3F)cc2)[C@H](CO)N1C(=O)Cc1ccccc1	1.3
CO[C@@H]1CN(C)C(=O)c2cc(NS(=O)(=O)c3cccc(C)c3)ccc2OC[C@@H](C)NC[C@H]1C	-5.9
O=C(C[C@H]1C[C@H]2c3cc(NC(=O)Nc4ccc(F)cc4)ccc3O[C@H]2[C@@H](CO)O1)NCC(F)(F)F	-4.9
O=C(C[C@@H]1CC[C@@H](NS(=O)(=O)c2ccc(F)cc2)[C@H](CO)O1)NCc1ccc(Cl)c(Cl)c1	0.5
COc1ccc(NC(=O)Nc2ccc3c(c2)CC(=O)N([C@H](C)CO)C[C@@H](C)[C@@H](CN(C)S(=O)(=O)c2ccccc2)O3)cc1	0.1
COc1ccc(S(=O)(=O)N(C)C[C@@H]2Oc3ccc(NC(=O)Nc4c(C)noc4C)cc3CC(=O)N([C@H](C)CO)C[C@@H]2C)cc1	-3.3

Next part:
SMILES	MLL AF4-AF9 inh
Cc1ccc([C@@H]2C[C@H]3[C@@H](CN2S(=O)(=O)c2ccc(C)cc2)C(=O)C[C@@H](c2ccccc2F)N3S(=O)(=O)c2ccc(C)cc2)cc1	0.5
COC(=O)[C@]12CCCCC=C1N(Cc1ccccc1)C(=O)[C@H](CC(=O)NCc1cccc3ccccc13)C2	-0.5
CC(=O)N[C@@H]1C[C@@H]2O[C@@H](CO)CC[C@@H]2O[C@@H]1CCc1ccc(C#CC2(O)CCCC2)cc1	-2.3
C[C@H](CO)N1C[C@H](C)[C@@H](CN(C)C(=O)Nc2ccc3c(c2)OCO3)Oc2ccc(NC(=O)C3CC3)cc2CC1=O	-0.8
O=C(C[C@H]1CC[C@H](NC(=O)CCN2CCCCC2)[C@@H](CO)O1)NCc1ccc(Cl)c(Cl)c1	1.4
Cc1ccc(N2CC(C(=O)N3CCN(c4ccccn4)CC3)CC2=O)cc1 (stereo not given)	0.0
CNC[C@H]1Oc2c(NC(=O)C3CCCCC3)cccc2C(=O)N([C@@H](C)CO)C[C@@H]1C	2.0
CO[C@@H]1CN(C)C(=O)c2cc(NS(=O)(=O)c3ccc(Oc4ccccc4)cc3)ccc2OC[C@H](C)NC[C@H]1C	-7.1
CCCCCCN1CCN(C2CN(Cc3ccc(F)cc3)S(=O)(=O)C2)CC1 (stereo not given)	3.7
COc1ccc([C@H]2C[C@@H](n3cc(-c4ccc(F)cc4)nn3)[C@H](O)CN2C(=O)c2cccs2)cc1	2.8
C[C@@H]1CN([C@H](C)CO)C(=O)c2cccc(NS(=O)(=O)c3ccc(F)cc3)c2O[C@H]1CN(C)Cc1ccncc1	-0.3
CO[C@H]1CN(C)C(=O)c2cc(NC(C)=O)ccc2OC[C@H](C)N(S(=O)(=O)c2cn(C)cn2)C[C@H]1C	2.5
CC(=O)Nc1cc(-c2ccccc2)cn2c(-c3ccc(F)cc3)cnc12	-3.0
C/C=C/c1ccc([C@H]2[C@@H](CO)N(c3nc(CC)cs3)[C@H]2CNC(C)C)cc1	12.0
C[C@@H]1CN([C@H](C)CO)C(=O)c2cc(NC(=O)CCC(F)(F)F)ccc2O[C@@H](C)CCCCO[C@H]1CN(C)C(=O)c1ccccc1	-2.0
CCC(=O)N1[C@H](CO)[C@H](c2ccc(C#CC(C)(C)O)cc2)[C@@H]1CN(C)C(C)=O	-3.6
O=C(NCC1CC1)[C@H]1[C@H](CO)[C@H]2Cn3c(ccc(C4=CCCCC4)c3=O)[C@H]2N1Cc1ccccc1F	7.4
CNC[C@@H]1Oc2ccc(NC(=O)NC3CCCCC3)cc2CC(=O)N([C@H](C)CO)C[C@@H]1C	5.5
Cc1ccc(S(=O)(=O)Nc2ccc3c(c2)C(=O)N([C@H](C)CO)C[C@H](C)[C@@H](CN(C)S(=O)(=O)c2c(C)noc2C)OCCCC[C@H](C)O3)cc1	1.2
CC(C)NC(=O)N(C)C[C@H]1Oc2c(NS(=O)(=O)c3cn(C)cn3)cccc2C(=O)N([C@H](C)CO)C[C@H]1C	-3.8
COc1ccc(NC(=O)Nc2ccc3c(c2)[C@H]2C[C@@H](CC(=O)N(C)C)O[C@@H](CO)[C@H]2O3)cc1	0.6
C[C@@H]1CCCCO[C@@H](CN(C)S(=O)(=O)c2ccccc2)[C@H](C)CN([C@H](C)CO)C(=O)c2cc(NC(=O)Nc3ccc4c(c3)OCO4)ccc2O1	5.4
CC=Cc1ccc2n(c1=O)C[C@H]1[C@H](CO)[C@@H](C(=O)NCC)N(C(=O)CC3CC3)[C@@H]21 (mixture of isomers)	0.1
COc1cccc(-c2cnc3c(c2)C(=O)N([C@H](C)CO)C[C@H](C)[C@H](CN(C)C(=O)Nc2ccccc2)O3)c1	-8.7
N#C[C@@H]1[C@H](c2ccccc2C2=CCCCC2)[C@@H](CO)N1S(=O)(=O)c1cccc(F)c1	-2.6
Cc1ccc(S(=O)(=O)N(C)C[C@@H]2OCCCC[C@@H](C)Oc3ccc(NS(=O)(=O)c4c(C)noc4C)cc3C(=O)N([C@H](C)CO)C[C@H]2C)cc1	3.5
COc1ccc(-c2c(C(=O)c3ccccc3)[nH]c(N)c2C(=O)c2ccc(Br)cc2)cc1OC	3.1
O=C(Nc1c(-c2ccc(Cl)cc2)[nH][nH]c1=O)c1ccccn1	-0.3
COCC#Cc1ccc2c(c1)O[C@@H](CN(C)C(=O)COC)[C@@H](C)CN([C@H](C)CO)S2(=O)=O	-2.7
Cc1noc(C)c1S(=O)(=O)Nc1ccc2c(c1)C(=O)N([C@H](C)CO)C[C@@H](C)[C@@H](CN(C)C(=O)c1ccccc1)OCCCC[C@H](C)O2	-4.1
COCC#Cc1cnc2c(c1)C(=O)N([C@H](C)CO)C[C@H](C)[C@H](CN(C)C(=O)Nc1c(C)noc1C)O2	-6.3
O=C(c1cccnc1)N1CC(=O)N2[C@H](C1)[C@H](c1ccc(-c3ccccc3F)cc1)[C@@H]2CO	22.1
COc1ccc(CN2C[C@@H](CO)O[C@@H](n3cnc4c(NC5CC5)ncnc43)C2)cc1	1.6

Source: PubChem

The list is partial, so the mix of outcomes need not match the whole.
